Arbovirus anti: blocks arbovirus infection. 200,000 compounds, 0.37% hits. arbovirus infection cell-based antiviral screen. AID 1251. inhibition, % at 10 µM;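 active = inhibition from about 30%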;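 also: bluetongue infection of BSR cells; cell survival read as ATP light after 72 h; 0% = infected wells without compound and 100% = uninfected wells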
Mtb bLac sens: beta-lactam sensitization of Mtb H37Rv; inhibition, % at 25 µM; M. tuberculosis H37Rv growth with meropenem, percent inhibition; hits of this screen are not shown here; 330,000 compounds, 0.27% hits;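 active = about 74% or more and at least 40 points above the plate without the antibiotic, then above 30% in a dose series; inconclusive = first-round hits that could not be retested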;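 also: growth measured after seven days incubation then overnight dye step; 0% = bacteria only wells and 100% = bacteria with antibiotic; twin plates without the antibiotic show which effects depend on it; some results filed as inactive read as strong as hits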
YopH PTP inh: blocks Yersinia enterocolitica YopH tyrosine phosphatase; inhibition, %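 (about 10 µM by stock and volumes)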; AID 898; fluorescence Ex485/Em525; 140,000 compounds, 0.16% hits;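 active = inhibition of 50% or more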;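 also: controls were vehicle for no effect and minimum signal wells for full effect; inactives centre near -20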
RecA splice inh: blocks M. tuberculosis RecA intein splicing; P9WHJ3; cell-free RecA intein splicing, fluorescence; inhibition, %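 (about 9 µM by stock and volumes)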; 290,000 compounds, 0.75% hits; AID 2221; in the data active = inhibition above about 30%; inconclusive = no clear call, values can overlap the other calls;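 also: 0% = vehicle wells and 100% = reference inhibitor control wells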
Target sequence (P9WHJ3 whole entry, looked up, canonical isoform): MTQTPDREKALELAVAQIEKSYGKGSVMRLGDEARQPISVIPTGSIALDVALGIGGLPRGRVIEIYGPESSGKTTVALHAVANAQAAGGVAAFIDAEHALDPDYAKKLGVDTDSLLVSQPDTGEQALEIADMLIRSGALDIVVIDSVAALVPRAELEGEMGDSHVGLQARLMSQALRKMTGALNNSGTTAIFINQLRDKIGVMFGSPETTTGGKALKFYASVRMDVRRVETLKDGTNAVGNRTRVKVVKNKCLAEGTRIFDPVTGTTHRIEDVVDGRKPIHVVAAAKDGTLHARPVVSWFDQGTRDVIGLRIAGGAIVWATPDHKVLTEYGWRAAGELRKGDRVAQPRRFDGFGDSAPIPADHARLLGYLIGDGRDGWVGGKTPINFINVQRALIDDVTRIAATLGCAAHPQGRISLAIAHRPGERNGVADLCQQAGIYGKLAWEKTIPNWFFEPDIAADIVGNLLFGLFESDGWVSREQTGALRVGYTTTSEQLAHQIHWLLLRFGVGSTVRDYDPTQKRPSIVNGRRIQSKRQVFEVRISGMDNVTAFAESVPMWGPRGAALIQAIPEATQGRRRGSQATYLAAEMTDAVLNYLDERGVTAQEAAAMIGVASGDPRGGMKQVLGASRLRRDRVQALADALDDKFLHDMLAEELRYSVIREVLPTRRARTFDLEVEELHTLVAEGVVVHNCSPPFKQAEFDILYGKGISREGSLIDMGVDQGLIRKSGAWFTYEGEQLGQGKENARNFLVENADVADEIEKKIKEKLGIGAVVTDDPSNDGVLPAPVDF
Mtb growth: M. tuberculosis H37Rv growth inhibitors, H37Rv strain (AID 1626); one-dose inhibition, % at 10 µM; IC50 in µM for titrated hits; 220,000 compounds, 0.95% hits; M. tuberculosis H37Rv growth inhibition; higher % means a stronger effect;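 active = confirmed in a dose series; inconclusive = inhibition above 80% but not taken into the dose series; inactive = below 80% or under 30% at every dose of the series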;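 also: bacteria incubated seven days before Alamar blue readout; 0% = bacteria only wells and 100% = bacteria with antibiotic wells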
Arbovirus anti repeat: recorded beside Arbovirus anti, whose call it bears; inhibition, %; measured here: 10K subset replicate screen; many hits read low in the repeat;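 first of two repeat runs on a subset; 0% = infected and 100% = uninfected wells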
The depositor's hits bear a star; ? = inconclusive; nt = no result given.

SMILES	Arbovirus anti	Mtb bLac sens	YopH PTP inh	RecA splice inh	Mtb growth	others
Cc1c(C(=O)N2CCc3ccccc3C2)oc2ccc(S(=O)(=O)N3CCCCCC3)cc12	-8	5	-12	4.2	10%
CCN(CC)S(=O)(=O)c1cccc(C(=O)Nc2sc3c(c2C(N)=O)CCCC3)c1	-1	-4	-19	-5.4	-6%
O=C(Nc1ccccc1)C1=C(O)CC(c2ccc(Cl)cc2)N2CCN=C12 (stereo not given)	17	4	-18	6.2	8%
Cc1ccc(NC(=O)Nc2cc(C(F)(F)F)c[nH]c2=O)cc1	nt	6	nt	-4.5	nt
O=C(O)CCN1c2ccccc2Sc2ccccc21	nt	6	nt	-1.7	8%
COc1cc(C(=O)N(C)c2nnc(-c3cccnc3)s2)cc(OC)c1OC	-1	nt	-8	-2.2	0%
Cc1cc(NCCCO)n2c(nc3ccccc32)c1C#N	4	-9	-20	-109	1%
COC(=O)c1ccc(C(=O)Nc2ccc3c(c2)C(=O)NC3=O)cc1	nt	9	nt	-2.2	nt
CC(O)C(NS(=O)(=O)c1ccc(Cl)cc1)C(=O)OCC(=O)c1c[nH]c2ccccc12 (stereo not given)	1	-5	nt	0.8	7%
O=C(Nc1ccccc1F)NC1CCCCCCC1	nt	98	nt	3.7	nt
CC(C)(C)C(=O)N1CCN(c2nc3ccccc3s2)CC1	nt	4	nt	2.7	nt
CCN(CC(=O)Nc1c(F)cccc1F)C(=O)c1ccc(S(=O)(=O)NCc2ccco2)cc1	nt	-4	nt	1.0	nt

3 structures already listed, arranged by length of the SMILES, ascending.
SMILES	Arbovirus anti	Mtb bLac sens	YopH PTP inh	RecA splice inh	Mtb growth	others
CC(C)(C)C(=O)N1CCN(c2nc3ccccc3s2)CC1	nt	4	nt	2.7	nt
CCN(CC)S(=O)(=O)c1cccc(C(=O)Nc2sc3c(c2C(N)=O)CCCC3)c1	-1	-4	-19	-5.4	-6%
CC(O)C(NS(=O)(=O)c1ccc(Cl)cc1)C(=O)OCC(=O)c1c[nH]c2ccccc12 (stereo not given)	1	-5	nt	0.8	7%

Next part:
SMILES	Arbovirus anti	Mtb bLac sens	YopH PTP inh	RecA splice inh	Mtb growth	others
CCCC/C(=N\NC(=O)c1ccc(Br)o1)c1ccccc1	2	?	-25	-0.6	-4%
O=c1cccc2n1CC1CC2CN(C(c2cccc(F)c2)c2sc3ncnn3c2O)C1 (stereo not given)	0	6	-16	-0.5	2%	Arbovirus anti repeat=-4
O=C(O)CC1(CC(=O)Nc2ccccc2N2CCOCC2)CCCC1	nt	-4	nt	-0.5	8%
Cc1ccc(SCC(=O)OCC(=O)NC2CCCCCCC2)cc1	nt	3	nt	-2.6	nt
COc1cnc(-c2ccccc2)nc1Oc1cccc(C)c1	9	2	-12	2.2	8%
Cc1ccc(NC(=O)Cn2cc(C(F)(F)F)cc(Cl)c2=O)cc1Cl	2	0	nt	-1.1	2%
CSc1nc(N)n2nc(-c3ccccc3)cc2n1	nt	-2	nt	-0.2	-12%
CCc1c(C(=O)NC2CCCCC2)[nH]c(C)c1C(C)=O	-2	-1	-42	-2.1	-3%
CC(=O)Nc1ccc(NC(=O)c2cc(-c3ccc(C)cc3O)n[nH]2)cc1	nt	4	nt	-0.7	nt
Nc1cccc2c1nnn2C1OC(CO)C(O)C(O)C1O (stereo not given)	8	-8	nt	-0.7	nt
Cc1c(C(=O)N/N=C/c2cccs2)nc2ccccn12	-5	5	-20	-7.9	-21%
Cc1cc(C(=O)Nc2sc(C)c(-c3ccc(F)cc3)c2C(N)=O)no1	-9	-15	5	-1.1	0%
CCC(C)NS(=O)(=O)c1ccc(NC(=O)c2cccs2)cc1 (stereo not given)	0	0	nt	1.9	-11%
O=C(Nc1ccc2oc(Cc3ccc(Cl)cc3)nc2c1)c1cccnc1	3	52	-23	-2.6	23%
CC(C)(C)c1cc(CCC(=O)NCc2ccccn2)cc(C(C)(C)C)c1O	nt	-1	nt	1.2	nt
CN(C)/C=N/c1c(C(=O)NCc2ccccc2)nnn1Cc1ccccc1	0	-11	-51	1.6	-2%
CNC(=O)Nc1cccc(-c2ccnc(C)n2)c1	nt	-11	nt	0.8	-6%
CCOC(=O)c1c(NC(=O)C2CCCCC2)sc2c1CCN(CC)C2	nt	3	nt	-1.5	nt
COC(=O)c1cccc(COC(=O)CNC(=O)c2ccco2)c1	6	-8	-40	-0.9	-5%
CCN(CC)C(=O)c1sc2nc(-c3ccccc3)ccc2c1N	-24	-10	nt	-39	-1%
O=Cc1cc(N=Nc2ccccc2Cl)ccc1O	-17	73	nt	4.0	50%
Cc1c(NC(=O)C2CCCN2S(=O)(=O)c2ccc(Cl)cc2)c(=O)n(-c2ccccc2)n1C (stereo not given)	4	9	3	1.5	3%
CC(=O)c1ccc(NS(=O)(=O)c2ccc(-c3cnc(C4CC4)o3)cc2)cc1	nt	-5	nt	1.0	nt
CNC(=O)C1=C(C)NC(=S)NC1c1cc2c(cc1OC)CCCC2 (stereo not given)	1	-15	-27	-1.2	0%

Among those listed so far, these contain an aryl thioether with sulfur outside any ring.
SMILES	Arbovirus anti	Mtb bLac sens	YopH PTP inh	RecA splice inh	Mtb growth	others
Cc1ccc(SCC(=O)OCC(=O)NC2CCCCCCC2)cc1	nt	3	nt	-2.6	nt
CSc1nc(N)n2nc(-c3ccccc3)cc2n1	nt	-2	nt	-0.2	-12%

More compounds follow.
SMILES	Arbovirus anti	Mtb bLac sens	YopH PTP inh	RecA splice inh	Mtb growth	others
COc1cc(-c2nc(-c3ccccc3)c(-c3cccs3)[nH]2)cc(OC)c1OC	-12	55	13	-1.2	10%
CC1CC(C)CN(S(=O)(=O)c2ccccc2[N+](=O)[O-])C1 (stereo not given)	10	2	-24	1.2	0%
COc1ccccc1C(=O)Nc1ccccc1N1CCCCC1	nt	17	nt	18	nt
CC1CC(=O)N(CC(=O)Nc2cccc(Cl)c2)c2ccccc2S1(=O)=O (stereo not given)	nt	4	nt	2.2	nt
O=C(c1ccc(Cl)c(S(=O)(=O)N2CCCC2)c1)N1CCN(c2ccccn2)CC1	-6	nt	-22	-0.2	-5%
COc1cc2[nH]c(C(=O)N3CCC(Cc4ccccc4)CC3)cc2c(OC)c1OC	nt	-3	nt	7.0	nt
COc1ccc(NC(=O)c2ccc(OC(=S)N(C)c3ccc(OC)cc3)cc2)cc1	-9	-4	-32	1.8	-9%
COc1ccc(NC(=O)CCCCCN2C(=O)CCC2=O)cc1Cl	0	81	-1	3.2	?
CCCCOC(=O)c1ccc(NC(=O)CSc2nnnn2C)cc1	0	-2	nt	-2.9	19µM*
CC(=O)c1cccc(NC(=S)NC(=O)c2ccc(C)cc2Cl)c1	-8	2	nt	5.2	2%
O=C(Nc1cccc(-c2nnc(-c3ccco3)o2)c1)c1ccccc1	-13	1	nt	-7.2	-9%
CC(C)Cn1cc(C(=O)N2CCN(c3ccccn3)CC2)c2c3ccccc3n(C)c2c1=O	-16	6	-24	6.4	6%
O=C(Nc1ccc(F)c(F)c1)c1cccnc1	2	3	-32	3.7	2%
CS(=O)(=O)n1nc(-c2ccccc2)nc1NCc1ccco1	-11	5	-66	6.3	-3%
Cc1cc(C)c(C)c(OC(=O)c2sc(Cl)nc2C)c1	-15	25	-16	-0.2	19%
CN(C)S(=O)(=O)c1ccc(Cl)c(NC(=O)COC(=O)C2CCCO2)c1 (stereo not given)	nt	-10	nt	-0.5	-6%
CCCCN(C)S(=O)(=O)c1ccc(C(=O)Nc2nnc(CSC)o2)cc1	-22	88	-31	2.1	-2%
C/C=C/c1ccc(OCCOc2cccc3cccnc23)c(OC)c1	23	11	-9	4.6	7%
Cc1ccc(C(=O)Nc2cccc(NC(=O)CN3CCCCC3)c2)cc1	nt	3	nt	-2.0	nt
CCSc1nnc(-c2ccc(S(=O)(=O)N3CCOCC3)cc2)n1C	nt	0	nt	-0.7	nt
O=C(Cc1ccc(Cl)cc1)Nc1cccnc1	nt	7	nt	1.8	nt
Cc1cc([N+](=O)[O-])nn1CCCC(=O)Nc1cc(Cl)ccc1Cl	-7	-2	nt	4.6	4%
CCN1CCN(Cc2ccc(OCc3ccccc3)c(OC)c2)CC1	-6	8	-16	-1.7	1%
Cc1nn(C)c(C(=O)Nc2cccc(CN3CCOCC3)c2)c1Br	3	-7	-25	-7.7	-5%
CCOC(=O)N1CCN(C(c2cccc(OC)c2)c2sc3nc(C)nn3c2O)CC1 (stereo not given)	-3	-2	0	2.0	0%
CN(C)C(C)(C)C#CC(O)(c1ccccc1)c1ccccc1	0	5	nt	2.2	1%
COc1ccc(/C=C/c2nc(C)c(-c3ccccc3)c(=O)[nH]2)cc1OC	11	-1	-28	2.5	4%
Clc1cc2nc[nH]c2cc1Cl	nt	2	nt	1.8	-9%
Cc1nc(N2CCN(C(=O)c3ccco3)CC2)[nH]c(=O)c1C	nt	-8	nt	-2.9	nt
O=C(CN1c2cccc3cccc(c23)S1(=O)=O)Nc1ccccc1	-5	-1	nt	2.5	-1%
N#Cc1ncc(C(F)(F)F)cc1Oc1cccnc1	20	2	nt	0.0	-7%
Cc1ccc(-n2c(-c3ccc(Cl)cc3)n[nH]c2=S)c(C)c1	nt	-3	nt	-2.3	nt
CN(C)CCCNC(=S)Nc1ccc(Oc2ccccc2)cc1	-15	-1	nt	-1.3	4%
CN1CCN(c2ccc(NC(=O)c3ccc4c(c3)[nH]c(=O)n4Cc3ccc(F)cc3)cc2)CC1	-27	5	-25	-15	12%
COc1ccc(NC(=O)c2sc3nc(N4CCOCC4)c4c(c3c2N)CC(C)(C)OC4)cc1	nt	4	nt	-3.6	nt
CC(=O)OC[C@H]1O[C@H](C/C=N/O[C@@H](C)c2cn([C@H](CO)Cc3ccccc3)nn2)C=C[C@@H]1OC(C)=O	6	9	-28	-2.4	nt
Cc1ccccc1NC(=O)Cn1c(CCC(=O)O)ccc1-c1cccs1	-3	-7	nt	-0.7	-8%
CCOc1ccc(OCC)c(NC(=O)CCCN2C(=O)c3cccnc3C2=O)c1	7	0	-34	0.8	-18%
CS(=O)(=O)N(Cc1ccccc1)c1ccc(C(=O)NCCSCc2ccco2)cc1	-10	2	-17	-3.1	2%
Cc1cc(C)n(-c2ccc3nnc(C)n3n2)n1	nt	-6	nt	0.7	-12%
NC(=O)CC(NC(=O)Cc1ccc(Cl)cc1)c1ccc(N2CCN(c3ccccn3)CC2)c([N+](=O)[O-])c1 (stereo not given)	nt	-1	nt	0.9	nt
CCCn1c(SC2C(=O)CC(C)(C)CC2=O)nc2c1c(=O)n(C)c(=O)n2C	3	-1	-36	1.6	16%
Cc1c(N/C=C/C(=O)c2ccc(Cl)cc2)c(=O)n(-c2ccccc2)n1C	4	-10	-24	-3.8	-6%
CC(C)OP(=O)(OC(C)C)C1(O)C(=O)Nc2ccccc21 (stereo not given)	4	-4	0	0.5	-1%
COc1ccc(O)c(/C=N/NC(=O)c2ccc(OCc3cccc(Br)c3)cc2)c1	-25	9	-8	0.1	-3%
COc1ccc2[nH]c(C)c(CCN3C(=O)C4C5C=CC(C5)C4C3=O)c2c1 (stereo not given)	-8	-5	-28	-5.1	nt	Arbovirus anti repeat=-4
COc1ccc(F)cc1CN1CCN(C(=O)CCC(=O)Nc2nnc(C3CCCCC3)s2)CC1	nt	2	nt	2.0	nt
C/C=C/c1ccc(OC(C)=O)c(OC)c1	-4	0	-20	-0.8	-9%
CCOc1cc(N2CCOCC2)c(OCC)cc1NC(=O)COC(=O)CCOc1cc(C)ccc1C	nt	3	nt	0.9	nt
Cc1ccc2c(c1)-c1c(cnn1CC(=O)Nc1ccccc1N1CCN(C)CC1)CO2	-33	-6	-17	-6.4	7%
CCN(CC)S(=O)(=O)c1ccc(C)c(NC(=S)Nc2cccc(S(=O)(=O)N3CCCCCC3)c2)c1	2	-1	-18	0.3	1%
Cc1ccc(C)c(/C=C(\C(=O)O)c2ccc(S(=O)(=O)N3CCCCC3)s2)c1	9	-4	nt	4.1	3%
C=CCN(CC=C)S(=O)(=O)c1ccc(C(=O)Nc2nnc(CSC)o2)cc1	-21	34	nt	-1.7	-10%
COc1cccc(C(=O)CSc2nnnn2C)c1	1	-3	-36	nt	-8%
O=C(CCCn1c(SCC(=O)c2ccc(F)cc2)nc2ccccc2c1=O)NCc1ccccc1	1	-1	-22	7.5	2%
CN(C1CCCCC1)S(=O)(=O)c1ccc2[nH]c(=O)oc2c1	nt	0	nt	-2.4	-9%
O=C(CN1CCCCCC1)Nc1ccc([N+](=O)[O-])cc1Cl	nt	-5	nt	-0.6	nt
C/C(=N\NC(=O)c1nc2ccccn2c1C)c1ccc2c(c1)OCO2	-8	10	-14	-4.3	-5%
COc1cccc(-c2nn(C)c3sc(C(=O)Nc4ccc5c(c4)OCCO5)cc23)c1	11	5	-20	-7.1	-7%
Nc1cccc(NC(=O)c2ccco2)c1	nt	-3	nt	-2.4	nt
COC(=O)C(OC(=O)c1ccc(OC)cc1)C(=O)OC	8	?	38	nt	-9%
Cc1ccc(-c2nc3[nH]c(=O)cc(NC(=O)c4cccs4)n3n2)cc1	nt	74	nt	-2.6	68%

Screens as filed in PubChem.

The list is partial (hit frequency here may not be typical).
